Assay outcomes as filed in PubChem BioAssay.
CtBP-E1A blk = inhibitors of CtBP/E1A interaction. actives 0.49% (n = 340,000). AlphaScreen GST-E1A/His-CtBP binding, 1536-well; active compounds read low; control for the full effect not named in the record. activity change, % (test concentration not listed). AID 651724; in the data active means activity change below about -65%; inconclusive means about -30% to -65%; inactive means above about -30%
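GST-E1A and His-tagged CtBP (125 nM each as 5X stock) were preincubated with pin-transferred compound for 2 h at 37 °C in the dark, then glutathione donor and nickel acceptor beads were added for 1 h before AlphaScreen reading.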
Six1-Eya2 inh = inhibitors of human Six1/Eya2 interaction; Q15475+O00167; AlphaScreen GST-Six1/His-Eya2 binding, biochemical; active compounds read low; control for the full effect not named in the record; activity change, % (concentration not given with the values); actives 0.56% (n = 360,000); in the data active = activity change below about -65%; inconclusive = about -30% to -65%; inactive = above about -30%
Target sequence (O00167 whole entry, looked up): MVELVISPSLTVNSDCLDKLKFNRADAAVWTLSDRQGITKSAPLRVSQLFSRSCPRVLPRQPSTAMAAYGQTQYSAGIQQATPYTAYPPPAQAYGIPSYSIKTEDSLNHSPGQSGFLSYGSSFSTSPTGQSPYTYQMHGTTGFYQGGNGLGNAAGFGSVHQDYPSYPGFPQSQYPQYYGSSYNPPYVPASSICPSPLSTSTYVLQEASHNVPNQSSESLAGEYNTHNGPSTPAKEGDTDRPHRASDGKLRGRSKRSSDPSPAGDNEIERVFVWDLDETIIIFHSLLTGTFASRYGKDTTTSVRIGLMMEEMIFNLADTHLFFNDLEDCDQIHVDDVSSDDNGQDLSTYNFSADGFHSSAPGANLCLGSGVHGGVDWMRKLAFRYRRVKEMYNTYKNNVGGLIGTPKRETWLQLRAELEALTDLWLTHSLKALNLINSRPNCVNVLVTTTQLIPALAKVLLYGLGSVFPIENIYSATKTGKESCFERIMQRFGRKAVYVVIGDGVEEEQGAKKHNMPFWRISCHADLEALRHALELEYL
Target sequence (Q15475 whole entry, looked up): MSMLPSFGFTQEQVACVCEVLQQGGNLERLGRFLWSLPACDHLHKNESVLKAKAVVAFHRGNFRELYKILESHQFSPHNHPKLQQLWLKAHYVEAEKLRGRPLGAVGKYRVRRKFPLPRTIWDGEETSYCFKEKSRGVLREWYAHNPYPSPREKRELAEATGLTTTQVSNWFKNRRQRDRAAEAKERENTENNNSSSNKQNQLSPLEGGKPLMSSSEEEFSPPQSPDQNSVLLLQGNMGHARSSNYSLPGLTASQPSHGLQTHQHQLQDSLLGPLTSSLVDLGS
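Six1/Eya2 binding was read as AlphaScreen signal after compounds were pinned into GST-Six1 plus His-tagged Eya2 (5X stock 250/500 nM) in pH 8.0 Tris/NaCl/TCEP buffer, beads added, then incubated 1 h, 37 C, dark.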
Starred values were filed as active, the others as inactive. % is set by controls: 0 for no effect and ±100 for the full control effect.

SMILES | Six1-Eya2 inh | CtBP-E1A blk
COc1ccc2nc(-c3ccc(CN4CCC(n5c(=O)[nH]c6ccccc65)CC4)cc3)c(-c3ccccc3)nc2c1 | -18.5 | -0.7
O=C(Cc1c(-c2ccccc2)nc2ccc(Br)cn12)N1CCCC1 | -11.4 | -0.8
C[C@@]12CC[C@@H](c3cc4c(cc3C1)OCO4)N2c1ccccc1 | -25.2 | -3.7
Cc1ccc(C(O)(C(=O)OC(C)C)C(O)c2ccccc2)cc1 (stereo not given) | 14.3 | -0.2
CCOC(=O)[C@]12Cc3cc(OC)ccc3[C@H]1N(CC(=O)OC)C(=O)c1cc(OC)ccc12 | -9.5 | 0.0
COc1ccc(C(=O)OCC2CN2c2cccc([N+](=O)[O-])c2)cc1 (stereo not given) | -13.8 | 2.7
CC(C)C[C@H]1COc2cc(N3CCN(C)CC3)ccc2S(=O)(=O)N1 | 8.7 | -15.4
CCOC(=O)[C@]12Cc3ccccc3[C@H]1N(CCC(=O)OC)C(=O)c1ccccc12 | 35.3 | -8.9
COC(=O)CN(CCCl)P1(=O)OCCCN1CCCl (stereo not given) | 7.0 | 2.9
CN(Cc1cccc(-c2ccncc2)c1)C(=O)Oc1ccccc1Cc1ccccc1 | 0.5 | 2.3
CCOC(=O)[C@]12Cc3cc(Cl)ccc3[C@H]1N(CC(=O)OC)C(=O)c1ccccc12 | -1.3 | -4.1
Cc1nc(-c2cccc(CN(C)C(=O)Oc3ccc([N+](=O)[O-])cc3)c2)no1 | -4.7 | -10.2
O=S1(=O)NCC2(CC2)CN1Cc1ccccc1 | 1.3 | 4.9
COc1ccc(CCN)cc1S(N)(=O)=O | -0.1 | 15.6
CCOC(=O)[C@]12Cc3c(cc(OC)c(OC)c3OC)[C@H]1N(C)C(=O)c1ccccc12 | -4.5 | 0.2
CCOC(=O)[C@]12Cc3ccccc3[C@H]1N(CCC(=O)OC)C(=O)c1cc(OC)ccc12 | 21.7 | 9.1
CCOC(=O)C12C(=O)OCC1C2c1ccccc1 (stereo not given) | 1.0 | 5.2
CCOC(=O)[C@]12Cc3cc(C)ccc3[C@H]1N(C(C)C)C(=O)c1ccccc12 | 0.0 | -13.9
CCOC(=O)[C@]12Cc3ccccc3[C@H]1N(Cc1ccccc1)C(=O)c1cc(F)c(F)cc12 | 11.4 | -10.2
CCOC(=O)[C@]12Cc3cc(Cl)ccc3[C@H]1N(C1CCCCC1)C(=O)c1ccccc12 | -4.3 | -1.3
CCOC(=O)[C@]12Cc3cc(C)ccc3[C@H]1N(C1CCCCC1)C(=O)c1cc(OC)ccc12 | -10.5 | -0.3

Molecules shown so far with four or more nitrogen atoms (2):
SMILES | Six1-Eya2 inh | CtBP-E1A blk
COc1ccc2nc(-c3ccc(CN4CCC(n5c(=O)[nH]c6ccccc65)CC4)cc3)c(-c3ccccc3)nc2c1 | -18.5 | -0.7
Cc1nc(-c2cccc(CN(C)C(=O)Oc3ccc([N+](=O)[O-])cc3)c2)no1 | -4.7 | -10.2

Record cards (already shown).
`CCOC(=O)[C@]12Cc3cc(OC)ccc3[C@H]1N(CC(=O)OC)C(=O)c1cc(OC)ccc12` as listed: Six1-Eya2 inh = -9.5; CtBP-E1A blk = 0.0
`CCOC(=O)C12C(=O)OCC1C2c1ccccc1` (stereo not given) as listed: Six1-Eya2 inh = 1.0; CtBP-E1A blk = 5.2

Compounds shown so far that have sulfur (three):
SMILES | Six1-Eya2 inh | CtBP-E1A blk
CC(C)C[C@H]1COc2cc(N3CCN(C)CC3)ccc2S(=O)(=O)N1 | 8.7 | -15.4
O=S1(=O)NCC2(CC2)CN1Cc1ccccc1 | 1.3 | 4.9
COc1ccc(CCN)cc1S(N)(=O)=O | -0.1 | 15.6

Only part of the results is shown; count on the stated rates, not on these rows.
